# S aureus helic: blocks Staphylococcus aureus DNA helicase. purified S. aureus helicase, fluorescence unwinding assay; about half of the hits fall short of the stated cut. inhibition, %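 (tested at about 80 µM)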. actives 0.05% (n = 120,000);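 active = both duplicates at 50% or more, or one of them with a favoured structure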;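 also: 0% = mean of negative control wells and 100% = mean of positive control wells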
# MgrA DNA FP: modulators of Staphylococcus aureus MgrA DNA binding; AID 602314; fluorescence polarization; inhibition, %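 (about 10 µg/mL by stock and volumes)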; actives 0.13% (n = 84,000);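 active = above 50% in either of two replicates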;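 also: 0% = protein plus DNA without compound and 100% = DNA alone without protein; higher means less MgrA bound to DNA so lower polarization; one replicate is shown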
# * marks the source's active call; other numbers are inactive results; / = not tested or not shown. Not all compounds are listed (hit frequency here may not be typical).
Molecule	S aureus helic	MgrA DNA FP
C(=NC1CC1)c1ccc(-c2ccccc2)cc1	/	0.1
Cc1ccc(CS(=O)(=O)CCC(=O)O)cc1	5	/
CN(C)CC[n+]1ccc(C(=O)c2ccccc2)cc1	3	-0.7
CCOC(=O)c1c(C)n(C)c2c1cc(OC(=O)c1ccc(F)cc1)c1ccccc12	/	-2.0
CCOC(=O)N1CCC(NC(=O)c2ccc3nc(/C=C(\O)c4ccc(OC)cc4)c(=O)[nH]c3c2)CC1	-2	/
COc1ccc(CCNS(=O)(=O)c2ccc3[nH]c(=O)ccc3c2)cc1OC	-1	-0.7
CCOC(=O)Cc1n[nH]c(=S)n1C	6	/
CC1(C)COCCN1C(=O)c1ccc(Cl)cc1	/	3.9
O=C(Oc1ccc2oc(-c3ccco3)cc(=O)c2c1)C1CCCCC1	1	-0.1
CCn1cc(CCCC(=O)NCc2cc(Br)ccc2OC)c2ccccc21	0	-0.8
Cc1nnsc1C(=O)Nc1cccnc1	/	-1.8
C/C=C(\C)c1nc2c(Br)cc(Br)cc2c(=O)o1	/	-0.4
CCOC(=O)c1sc(NC(=O)c2cc3c(C)nn(Cc4ccccc4)c3s2)nc1C	-4	/
CN(C)/C=C1/C(=O)N(c2nc3ccccc3s2)N=C1c1ccccc1	/	-0.2
O=C1CC(Sc2ccccn2)C(=O)N1c1ccccc1 (stereo unspecified)	/	1.8
CCn1c2ccccc2c2cc(NC(=O)c3cc(C)on3)ccc21	-17	/
Cc1cc(C(=O)NCc2ccccc2)on1	2	-0.7
Cc1ccc(C(=O)Nc2ccc3c(c2)OCCO3)cc1	11	0.9
COc1ccc(Cl)cc1NC(=O)c1c(NCc2cccn2C)sc2c1CCCC2	9	/
Cc1cc(-c2ccccc2)n2nc(N)nc2n1	0	2.7
Cc1[nH]c2ccccc2c1C(c1cccs1)N1CCN(c2ccccc2)CC1 (stereo unspecified)	19	-4.5
O=C(O/N=C(\Cn1nnc(N2CCOCC2)n1)c1ccc(Cl)cc1)c1ccc(Cl)cc1Cl	27	/
Cc1cc(C(=O)COc2cccc3cccnc23)c(C)n1C	-16	/
C/C(=N\OCc1cccc(C(=O)O)c1)c1ccc(Cl)c(Cl)c1	/	3.2
C=CCNC(=O)Cc1coc2cc(C)ccc12	11	0.2
C=CCn1c(COc2ccccc2)nnc1SCC(N)=O	6	0.0
COc1ccc2c(c1)CCc1sc(/N=C/c3ccc(C)cc3)nc1-2	-19	5.3
CC1=CC(=C2C(=O)N(c3ccccc3)N=C2C)C=C(C)N1Cc1ccco1	-5	/
Cc1c(Cl)cccc1NC1=NCC(=O)N1C1CCCC1	-4	-2.0
CCOC(=O)N1CCC(NCc2ccc(Br)cc2)CC1	-9	-0.5

# Retrieved by compound from the list above, six records:
Molecule	S aureus helic	MgrA DNA FP
CCOC(=O)c1c(C)n(C)c2c1cc(OC(=O)c1ccc(F)cc1)c1ccccc12	/	-2.0
C=CCn1c(COc2ccccc2)nnc1SCC(N)=O	6	0.0
Cc1cc(-c2ccccc2)n2nc(N)nc2n1	0	2.7
Cc1[nH]c2ccccc2c1C(c1cccs1)N1CCN(c2ccccc2)CC1 (stereo unspecified)	19	-4.5
C=CCNC(=O)Cc1coc2cc(C)ccc12	11	0.2
Cc1ccc(CS(=O)(=O)CCC(=O)O)cc1	5	/

# Next section
Molecule	S aureus helic	MgrA DNA FP
O=C(Cc1cccs1)NC1CCN(Cc2ccccc2)CC1	8	-2.2
Cc1ccc(C)c(NC2=NCCC2)c1	-20	-3.1
O=C(c1cc2sccc2n1Cc1ccc(F)cc1)N1CCc2ccccc2C1	9	-1.3
CCCCCc1ccc(/C=N/O)cc1	/	5.1
CN(C)c1ccc2c3c(cccc13)C(=O)N(c1nc3ccccc3n1C)C2=O	-142	/
O=C1/C(=C/c2ccccc2)CCC1C1CCCC1 (stereo unspecified)	1	2.2
CC1(C)CC2(CCO1)OC(=O)CC2C(=O)Nc1ccc(Cl)c(Cl)c1 (stereo unspecified)	1	/
O=c1nc(Oc2cccc(C(F)(F)F)c2)cc(Oc2cccc(C(F)(F)F)c2)[nH]1	2	-3.4
O=C(Nc1nc2ccccc2s1)c1ccc(=O)[nH]c1	1	/
O=Cc1ccc(/C=C2\SC(=S)N(CC(=O)O)C2=O)cc1	/	-0.1
Cc1ccccc1CC(=O)Nc1ccccc1	6	0.2
CC1CCCC(C)N1Cc1ccc(N)cc1 (stereo unspecified)	15	-0.8
COC(=O)c1cccc(-c2ccc(/C=C3\Sc4ccccc4C3=O)o2)c1	/	-1.6
COc1ccc(CCNC(=O)c2ccccc2)cc1OC	/	-0.4
c1ccc(COC(CNC2CCCCC2)CNC2CCCCC2)cc1	/	0.6
CN(C)S(=O)(=O)c1ccc2c3c(cccc13)C(=O)N2C(=O)c1cccs1	-17	/
NC(=O)C1CCN(C(=O)CN2C(=O)/C(=C/c3ccccc3F)Sc3ccccc32)CC1	9	-0.1
CC(C)(C)c1ccc(CSc2nc(N)cc(=O)[nH]2)cc1	/	-0.1
CC1CCN(C(=O)COc2cccc3c2CCN(Cc2ccccc2)C3=O)CC1	21	/
COc1cccc(Cc2nnc(-c3ccc4nsnc4c3)o2)c1	/	0.9
CCCN1C(=O)/C(=c2\sc3n(c2=O)C(c2ccc(OC)cc2)C(C(=O)OC)=C(C)N=3)c2ccccc21 (stereo unspecified)	/	1.4
CC1CC(C)(C)Nc2ccc(OC(=O)c3ccco3)cc21 (stereo unspecified)	19	0.2
O=C(c1ccco1)N(Cc1ccccc1)Cc1cn(-c2ccccc2)nc1-c1ccc(F)cc1	-4	12
COc1cc(C(F)(F)F)nc2ccc(C)c(N)c12	/	0.1
Cn1nccc1NC(=O)/C=C/C(=O)O	/	-7.2
Cc1ccccc1C1Nc2ccccc2S(=O)(=O)N1 (stereo unspecified)	11	0.3
CCOc1ccc(N2CC(c3nc4ccccc4n3C(C)C)CC2=O)cc1 (stereo unspecified)	-12	1.0
Cc1nc2ccc(C(=O)OCCC(F)(F)F)cc2[nH]1	-25	-0.2
Cc1cc2ncn(CCc3noc(-c4ccccc4)n3)c2cc1C	-20	/
CS(=O)(=O)N1CCN(c2ccc(C#N)cn2)CC1	/	-1.4

# Taken from above:
# MgrA DNA FP result of CCCCCc1ccc(/C=N/O)cc1 is entered as 5.1
# S aureus helic result of Cc1nc2ccc(C(=O)OCCC(F)(F)F)cc2[nH]1 is entered as -25

# (more compounds)
Molecule	S aureus helic	MgrA DNA FP
COc1ccccc1COC(=O)C1CCC1	-20	0.5
Cc1csc(C/C(N)=N/O)n1	-13	/
O=C(CC1(O)C(=O)N(Cc2ccccc2)c2ccccc21)c1ccc(Br)cc1 (stereo unspecified)	10	3.7
COC(=O)CN1C(CN2CCOCC2)=Nc2ccc(Br)cc2C1c1ccccc1 (stereo unspecified)	-14	/
CS(=O)(=O)N1Cc2ccccc2CC1C(=O)OCC(=O)c1ccccc1F (stereo unspecified)	-14	/
Nc1cccc(CCc2ccccn2)c1	-7	-2.2
S=C1Cc2ccccc2N1	33	/
c1ccc(-c2ncc3c(n2)-c2ccccc2CC3)cc1	/	2.5
COc1ccccc1NCC(O)Cn1ccc2ccccc21 (stereo unspecified)	13	-5.1
COc1c(F)c(F)c(C(=O)O)c(Nc2cccc(C)c2)c1F	35	/
N#Cc1nc2c(-c3nc4ccccc4s3)c(N)n(Cc3ccccc3)c2nc1C#N	-13	3.4
Cc1cccc(C)c1OCC(=O)N1CCc2ccccc21	-6	-2.5
C[C@]12CC[C@@H](O)CC1CCC1C2CC[C@](C)(C(=O)O)C1/C=C1/Nc2ccccc2C1=O (stereo partly specified)	/	14
Cc1ccc(N2C(=O)NC(c3ccccc3)(C(F)(F)F)C2=O)nc1 (stereo unspecified)	4	-1.6
Cc1ccc2[nH]c(=O)c(CN(Cc3nnnn3CCc3ccccc3)C3CCCC3)cc2c1	0	-1.2
O=C(CN1C(=O)/C(=C\c2ccc(F)cc2)N=C1c1ccccc1)c1ccco1	/	-10
CC(=O)Nc1ccc(S(=O)(=O)NCCC(c2ccccc2)c2ccccc2)cc1	2	-1.6
COc1ccccc1C1CCN(C(=S)Nc2ccc(Br)cc2)CC1	/	-0.5
Cc1cc(=O)cc(C)n1-c1ccccc1O	10	/
Cc1ccc2nc(NCc3ccccc3)c(C=Nc3ccc(Cl)cc3)c(=O)n2c1	-8	-1.9
N#CCNS(=O)(=O)c1cc(Cl)ccc1Cl	14	-0.7
Cc1ccc(Nc2nc(Nc3ccc(C)cc3)nc(Sc3ncn[nH]3)n2)cc1	7	-10
COc1ccccc1CNC(=O)C1CCCN(C(=O)N2CCOc3ccccc32)C1 (stereo unspecified)	11	/
Cc1ccc2c(c1)c1nc3ccccc3nc1n2CCN1CCOCC1	17	/
Cc1c(C(=O)O)cc(-c2ccccc2)n1CCSc1cc(C(F)(F)F)nc2ccccc12	/	0.0
Cc1ccc(C)c(N2CCN(C(=O)c3ccc(/C=C4\Oc5ccccc5NC4=O)cc3)CC2)c1	8	2.5
CC1(C)/C(=C\CC(=O)O)C2CCC1C2 (stereo unspecified)	/	0.3
Cc1c(C#N)c(NC(=O)CSc2nnnn2C2CCCC2)n(Cc2ccccc2)c1C	-11	/
Cc1ccc(C(c2c(O)[nH]c(=S)[nH]c2=O)N2CC(C)CC(C)C2)cc1 (stereo unspecified)	35	/
O=c1oc2c(Cl)cc(Cl)cc2cc1-c1nnc(Nc2ccccc2F)s1	/	2.8
Nc1ccccc1Sc1ncnc2scc(-c3ccccc3)c12	/	-1.5
COCCN1C(=O)c2ccccc2C(C(=O)NC(C)C)C1c1c[nH]c2ccccc12 (stereo unspecified)	18	/
COc1ccc(C)cc1NC(=O)c1c(C)cn(C)c1CC(=O)O	-13	/
CCN(CC)c1ccc2cc(C(=O)NC(C)=O)c(=Nc3cccc(F)c3)oc2c1	/	0.3
Cn1nnc2c(N3CCC(C#N)(c4ccccc4)CC3)nc(Cc3ccc(Cl)cc3Cl)nc21	-13	/
O=C(Nc1ccc(F)cc1F)c1nn2c(C(F)(F)F)cc(-c3ccco3)nc2c1Cl	/	-1.5
COc1ccc(C(=O)N[C@H](C(=O)Nc2nc3ccccc3[nH]2)C(C)C)cc1	-11	/
CCN=C(Nc1ccc2c(c1)OCO2)SC1CC(=O)N(c2ccc(C(=O)OC)cc2)C1=O (stereo unspecified)	21	0.2
Fc1cccc(NCc2cn3cccnc3n2)c1	14	/
COc1ccc(C(=O)Nc2nc3c(OC)cccc3s2)cc1OC	-17	/
COC(=O)c1ccc2n[nH]nc2c1	/	-3.5
O=C(NCc1cccnc1)c1nc(-c2ccc(Cl)cc2)n2c1CCCCC2	8	1.3
COC(=O)C1=C(NC(=O)C(C)(C)C)CCS1	6	/
COCC(C)NC(=O)Nc1cn(C)c2ccccc12 (stereo unspecified)	0	/
CC1CC1C(=O)OCC(=O)Nc1cccc(Cl)c1 (stereo unspecified)	10	0.8
O=C(Nc1nccs1)c1ccoc1COc1ccccc1	10	-4.0
OC(CN1CCCC1)Cn1c2ccc(Cl)cc2c2cc(Cl)ccc21 (stereo unspecified)	/	-2.1
O=C(Cc1cccs1)NCc1cc(Cl)cc(Cl)c1	/	-3.8
Cc1ccc(C)c(N2N=C(C(=O)OCC(=O)NC3CC3)CCC2=O)c1	-2	/
CCCn1c(C)cc(C(=O)CSc2nnc(-c3ccccc3)n2C)c1C	-7	/
CCCS(=O)(=O)/C(C#N)=C/Nc1ccccn1	/	-2.0
Nc1nc(/C(=C/CC(=O)O)C(=O)N[C@@H]2C(=O)N3C(C(=O)O)=CCS[C@H]23)cs1	/	3.4
Cc1sc2c(c1C)c(=O)n(-c1ccc(Cl)cc1)c(=O)n2CC(=O)N1CCCCC1C (stereo unspecified)	0	-1.1
CC(C)N(C(=O)NC(=O)Nc1cccc2ccccc12)S(C)(=O)=O	7	/
N#CC1(C#N)C(c2ccccc2Cl)C1(C#N)C#N	/	28
CCCc1cnc(N2CCN(S(=O)(=O)c3cccs3)CC2)nc1	/	-0.4
Cc1ccc(OCCN2CCN(C(=O)CSc3nc4ccccc4nc3N3CCCC3)CC2)cc1	-28	/
COc1ccc(CNC(=O)CSc2nc3cc4c(cc3cc2C#N)OCCO4)cc1	-13	1.8
Cc1ccc2nc(N3CCN(Cc4nnnn4C4CCCC4)CC3)c(C#N)cc2c1	3	0.8
CCOC(=O)c1cnc(SCC(=O)c2ccc(-c3ccccc3)cc2)nc1N	/	2.6

# Next section
Molecule	S aureus helic	MgrA DNA FP
O=C(O)C1CC=CCC1C(=O)Nc1ccccc1F (stereo unspecified)	/	2.5
CN(C)c1ccc(N=Cc2nc(-c3ccccc3)oc2O)cc1	-89	18
O=C(NCCN1CCN(Cc2ccccc2)CC1)Nc1ccc(F)cc1	14	/
COc1ccc2oc(=O)c(-c3nc4ccccc4c(=O)[nH]3)cc2c1	-10	2.3
CCOC(=O)CSCC1=C(C(=O)OCC)CNC(=O)N1	-10	/
Cn1ccnc1C(=O)c1cccc(Br)c1	12	-2.0
Nn1c(SCC(=O)N2CCCC2)nnc1C1CCCCC1	-9	/
NNC(=O)CN1C(=O)Nc2ccc(Br)cc2C1c1ccccc1 (stereo unspecified)	4	/
CC(C)c1nnc(NC(=O)CC23CC4CC(CC(C4)C2)C3)s1	14	/
CCOC(=O)CC(=O)NC1(Cc2ccc(O)cc2)CCCCC1	20	/
CCN(CC)C(=O)c1cc(-c2cc(C(=O)N(CC)CC)c3ccccc3n2)nc2ccccc12	3	0.6

# From PubChem
